High-throughput results deposited in PubChem by National Center for Advancing Translational Sciences (NCATS).
Lassa entry inh = Lassa virus entry inhibition. Lassa virus pseudotype entry inhibition, cell reporter; control for the full effect not named in the record. Potency, µM (series often up to 37.9 µM), for the others: at the highest dose activity change, negative = inhibition, hits mostly inhibitors. actives 1.2% (n = 300,000). AID 540256; active means well fitted inhibition curve with a large enough effect; inconclusive means small, poorly fitted or top-dose-only effect, or effect the other way; inactive means flat fitted curve, though single readings scatter; tested in HEK293 cells; note: % is set by controls: 0 for no effect and ±100 for the full control effect; nearly all actives have a fitted effect of over 50% in size; luciferase read-out
2A StopGo = FMDV 2A StopGo reporter, luciferase signal; human cells with a luciferase reporter of 2A StopGo recoding; control for the full effect not named in the record; Potency, µM (titrated, usually from 57.9 µM), for inactives: at the top dose signal change, negative = less light; actives 1.2% (n = 410,000); AID 1159524; active = well fitted falling curve with a large enough effect; inconclusive = small, poorly fitted or top-dose-only effect; inactive = no such curve, though single readings can be large or run the other way; tested in HEK293T cells; note: % is set by controls: 0 for no effect and ±100 for the full control effect; nearly all actives have a fitted effect of over 45% in size; luciferase light after 4 h
Cruzain noTriton = cruzain (T. cruzi) inhibition without detergent; P25779; purified cruzain, Z-FR-AMC fluorescence, no detergent; Potency, µM, inactives show max response, negative = inhibition, usual class: inhibitors; actives 2.3% (n = 200,000); AID 1476; active = well fitted curve in the direction sought with a large enough effect; inconclusive = small, poorly fitted or top-dose-only effect, or another doubt; inactive = no such curve, though single readings can be large; an effect the other way counts as inactive or inconclusive;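 note: plate controls were enzyme without inhibitor for no effect and buffer without enzyme for full effect; nearly all actives have a fitted effect of over 40% in size; top concentration of the series not given in the record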
Target sequence (P25779 123-467 limits assumed): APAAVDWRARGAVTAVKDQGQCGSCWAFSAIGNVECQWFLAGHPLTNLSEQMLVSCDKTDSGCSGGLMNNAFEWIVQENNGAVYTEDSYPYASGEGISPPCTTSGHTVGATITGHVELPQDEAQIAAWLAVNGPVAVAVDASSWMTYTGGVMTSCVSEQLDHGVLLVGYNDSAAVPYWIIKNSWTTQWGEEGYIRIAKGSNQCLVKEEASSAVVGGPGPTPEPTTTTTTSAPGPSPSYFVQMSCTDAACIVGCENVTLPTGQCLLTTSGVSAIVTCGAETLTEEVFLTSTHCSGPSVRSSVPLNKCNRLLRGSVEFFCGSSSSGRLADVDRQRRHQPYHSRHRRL
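Purified cruzain at 1.5 nM, pre-incubated 15 min with compound at room temperature in 100 mM sodium acetate pH 5.5, 5 mM DTT, 0.00005% Triton X-100. Reaction started with 2 uM Z-FR-AMC; AMC fluorescence increase over 60 s gives rate.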
SARS PLpro yeast = blocks SARS-CoV papain-like protease in a yeast assay. Potency, µM (series often up to 32.9 µM), inactives show at the highest dose activity, positive = growth rescue. actives 0.19% (n = 330,000). S. cerevisiae expressing SARS-CoV PLpro, growth rescue; control for the full effect not named in the record; note: 0% is about no effect; nearly all actives have a fitted effect of over 55% in size; growth read by luminescence after 48 h
Cruzain Triton = cruzain (T. cruzi) inhibition with detergent; P25779; purified cruzain, Z-FR-AMC fluorescence, 0.01% Triton; Potency, µM, without a hit: max response, negative = inhibition, usual class: inhibitors; actives 0.43% (n = 200,000); AID 1478; active = well fitted curve in the direction sought with a large enough effect; inconclusive = small, poorly fitted or top-dose-only effect, or another doubt; inactive = no such curve, though single readings can be large; an effect the other way counts as inactive or inconclusive;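 note: plate controls were neutral wells for no effect and buffer without enzyme for full effect; nearly all actives have a fitted effect of over 40% in size; top concentration of the series not given in the record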
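Read-out: AMC fluorescence (360 nm excitation, 450 nm emission), four reads over 2 min, first-to-third difference used. Conditions: cruzain 1.5 nM, Z-FR-AMC 2 uM, pH 5.5 acetate, 5 mM DTT, 0.01% Triton X-100.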
MARV entry inh = inhibitors of Marburg virus binding or cell entry. Potency, µM (highest dose often 37.8 µM), inactives show at the top dose activity change, negative = inhibition, usual class: inhibitors. Marburg virus pseudotyped entry inhibition, cell reporter; control for the full effect not named in the record; about a third of the inactives were read at about 46 µM. actives 1.8% (n = 300,000); active = well fitted inhibition curve with a large enough effect; inconclusive = small, poorly fitted or top-dose-only effect, or effect the other way; inactive = flat fitted curve, though single readings scatter; tested in HEK293 cells; about a fifth of its hits are not listed in these tables; note: % is set by controls: 0 for no effect and ±100 for the full control effect; luciferase read-out
NS1 inh = blocks influenza NS1 protein function | S. cerevisiae slowed by influenza A NS1, growth recovery by OD600 | actives 0.4% (n = 270,000) | Potency, µM (series often up to 46.1 µM), for inactives: at the top dose activity, positive = more growth | AID 2326; note: actives are rising curves; nearly all actives have a fitted effect of over 50% in size
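A cell-based growth assay was used: compounds that relieve NS1-induced slow growth of budding yeast raise OD600. Assay medium was yeast nitrogen base with ammonium sulphate and -URA supplement, pH 6.0, with 2% galactose.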
RE007 growth inh = less growth of the S. pombe RE007 Vpr strain. S. pombe RE007 Vpr strain, BacTiter-Glo ATP luminescence, 24 h; control for the full effect not named in the record. Potency, µM (top dose mostly 92.2 µM), inactives show at the top dose activity change, negative = less growth. actives 0.21% (n = 360,000). AID 651644; active = well fitted falling curve with a large enough effect; inconclusive = small, poorly fitted or top-dose-only effect; inactive = no such curve, though single readings can be large or run the other way;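 note: % is set by controls: 0 for no effect and ±100 for the full control effect; nearly all actives have a fitted effect of over 50% in size; the assay follows cell death caused by Vpr and the record does not say whether a fall means rescue or toxicity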
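Fission yeast strain RE007, carrying one chromosomally integrated HIV-1 vpr copy, was seeded at OD 0.01 in PMG+AL medium with 23 nL pinned compound. After 24 h at 30 °C and 99% humidity, viability was read by BacTiter-Glo luminescence.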
The depositor's hits bear a star; & = joins results of further samples; [ ] = dose if it differs, or a comment. Unless noted, calls come from the whole dose curve; as a rule, active means well fitted rising curve with a large enough effect; inconclusive means small, poorly fitted or top-dose-only effect; inactive means no such curve, though single readings can be large or run the other way. Potency is the fitted concentration of half-maximal effect.

What do the screens show for `O=C(COc1c(Br)cc(Br)c2cccnc12)N1CCCCC1`?
Lassa entry inh: 34%[46.1 µM]; 2A StopGo: 0%; SARS PLpro yeast: 19%; MARV entry inh: 7%[46.1 µM]; RE007 growth inh: -3%

How did Cc1cc(Cl)ccc1OCC(=O)Nc1c(Cl)ccc2nsnc12 do in these assays?
Lassa entry inh: -15%[46.1 µM]; 2A StopGo: inconclusive; Cruzain noTriton: -5%; Cruzain Triton: 1.2%; MARV entry inh: 15%[46.1 µM]

Results for CC(C)N1CCN(C(=O)c2ccc(OC3CCN(CCc4ccccc4)CC3)cc2)CC1 ?
Lassa entry inh: -16%; 2A StopGo: 24%; SARS PLpro yeast: 9%; MARV entry inh: 11µM*; NS1 inh: 22%; RE007 growth inh: -12%

How did CCc1ccc(NS(=O)(=O)c2ccc3[nH]cc(C(=O)N(C)Cc4ccco4)c(=O)c3c2)cc1 do in these assays?
Lassa entry inh: 0%[46.1 µM]; 2A StopGo: -9%&-5%; Cruzain noTriton: -2%&10%; SARS PLpro yeast: 3%; Cruzain Triton: -7.4%&-2.1%; MARV entry inh: -1%[46.1 µM]; NS1 inh: 7%; RE007 growth inh: -9%

Results for CCc1cccc(C)c1NC(=O)Cn1nnc(-c2nc(-c3ccccc3F)no2)c1N ?
Lassa entry inh: 5%[46.1 µM]; 2A StopGo: -1%; Cruzain noTriton: inconclusive; Cruzain Triton: -7.7%

Results for COCCNC(=O)CN(Cc1ccc(Cl)cc1)S(C)(=O)=O ?
Lassa entry inh: 2%; 2A StopGo: -2%; Cruzain noTriton: -9%; SARS PLpro yeast: -2%; Cruzain Triton: 1.6%; MARV entry inh: 1%; NS1 inh: -3%; RE007 growth inh: -3%

Results for COc1ccc2cc(-c3[nH]ncc3CN3CCCCO3)ccc2c1 ?
Lassa entry inh: 3%[46.1 µM]; 2A StopGo: 1%; SARS PLpro yeast: -2%; MARV entry inh: inconclusive; NS1 inh: -3%; RE007 growth inh: -16%

What do the screens show for `Cc1ccc(Cl)cc1NS(=O)(=O)N1CCOCC1`?
Lassa entry inh: 6%[46.1 µM]; 2A StopGo: -4%; SARS PLpro yeast: -1%; MARV entry inh: inconclusive; NS1 inh: -12%; RE007 growth inh: -17%

How did CS(=O)(=O)N(CC(=O)N/N=C/c1cc([N+](=O)[O-])ccc1Cl)c1ccccc1 do in these assays?
Lassa entry inh: inconclusive; 2A StopGo: 0%; Cruzain noTriton: -17%; SARS PLpro yeast: -2%; Cruzain Triton: -6.9%; MARV entry inh: inconclusive; NS1 inh: -1%; RE007 growth inh: 0%

Results for CN(C)C(=O)C(=O)c1c(-c2ccccc2)cc2ccccn12 ?
Lassa entry inh: 8%; 2A StopGo: 0%; Cruzain noTriton: -4%; SARS PLpro yeast: 2%; Cruzain Triton: 1.8%; MARV entry inh: 19%; NS1 inh: -20%; RE007 growth inh: 9%

How did CC(C)OC(=O)CC(NC(=O)OC(C)(C)C)c1ccccc1 (stereo unspecified) do in these assays?
Lassa entry inh: -3%; 2A StopGo: 3%; Cruzain noTriton: 5%&-5%; SARS PLpro yeast: 6%; Cruzain Triton: 4.7%&-1.6%; MARV entry inh: -9%; NS1 inh: -4%; RE007 growth inh: 9%

How did N#CC1=C(SCc2ccccc2)NC(=O)CC1c1ccc(O)cc1 (stereo unspecified) do in these assays?
Lassa entry inh: 0%; 2A StopGo: -2%; Cruzain noTriton: -8%; SARS PLpro yeast: 1%; Cruzain Triton: 2.8%; MARV entry inh: 2%; NS1 inh: 0%; RE007 growth inh: 0%

2 entries drawn at random from the list so far:
How did Cc1cc(Cl)ccc1OCC(=O)Nc1c(Cl)ccc2nsnc12 do in these assays?
Lassa entry inh: -15%[46.1 µM]; 2A StopGo: inconclusive; Cruzain noTriton: -5%; Cruzain Triton: 1.2%; MARV entry inh: 15%[46.1 µM]

Results for COc1ccc2cc(-c3[nH]ncc3CN3CCCCO3)ccc2c1 ?
Lassa entry inh: 3%[46.1 µM]; 2A StopGo: 1%; SARS PLpro yeast: -2%; MARV entry inh: inconclusive; NS1 inh: -3%; RE007 growth inh: -16%

The list goes on:
How did CCCN(c1ccccc1F)S(=O)(=O)c1ccc2c(c1)C(C)(C)C(=O)N2C do in these assays?
Lassa entry inh: inconclusive; 2A StopGo: -1%; Cruzain noTriton: inconclusive; Cruzain Triton: -3.8%

How did CSc1nc(C)[nH]c(=O)c1C#N do in these assays?
2A StopGo: -2%; SARS PLpro yeast: -1%; NS1 inh: 0%; RE007 growth inh: 10%

Results for COc1ccc(-n2ncc(C(C)NS(=O)(=O)c3cccs3)c2C)cc1 (stereo unspecified) ?
Lassa entry inh: inconclusive; 2A StopGo: -10%; SARS PLpro yeast: 9%; MARV entry inh: -7%; NS1 inh: 2%; RE007 growth inh: 7%

What do the screens show for `COc1cc(/C=C2/C(=N)N3C=CSC3=NC2=O)ccc1OCCOc1ccc(NC(C)=O)cc1`?
Lassa entry inh: 24%; 2A StopGo: -13%; SARS PLpro yeast: 2%; MARV entry inh: -1%[46.1 µM]; RE007 growth inh: -3%

How did O=C(CCNC(=O)c1ccc(Br)cc1)NCC1CCCO1 (stereo unspecified) do in these assays?
Lassa entry inh: -5%[46.1 µM]; 2A StopGo: -17%; SARS PLpro yeast: -5%; MARV entry inh: 3%; RE007 growth inh: -27%

Results for CC1COC2N=C(N[N+](=O)[O-])NC2O1 (stereo unspecified) ?
Lassa entry inh: 0%[46.1 µM]; 2A StopGo: -9%; SARS PLpro yeast: 1%; MARV entry inh: -17%[46.1 µM]; RE007 growth inh: 15%

How did CC(C)c1cc(Br)c(NC(=O)Nc2cccnc2)c(Br)c1 do in these assays?
2A StopGo: inconclusive; SARS PLpro yeast: -2%; NS1 inh: 5%; RE007 growth inh: 16%

Results for O=C(COC(=O)c1ccccc1)c1ccc(S(=O)(=O)N2CCCCC2)cc1 ?
Lassa entry inh: -6%; 2A StopGo: -29%; SARS PLpro yeast: 4%; MARV entry inh: 3%; RE007 growth inh: 4%

How did CCCOCC1CC2(SC(=Nc3ccc(C)cc3)NC2=O)C(=O)O1 (stereo unspecified) do in these assays?
Lassa entry inh: inconclusive; 2A StopGo: -18%; Cruzain noTriton: -8%; SARS PLpro yeast: 6%; Cruzain Triton: 1.4%; MARV entry inh: -1%; NS1 inh: -3%; RE007 growth inh: -5%

Results for O=C1CC(SCCc2nc3ccccc3[nH]2)C(=O)N1c1ccc(F)c(Cl)c1 (stereo unspecified) ?
Lassa entry inh: 17%; 2A StopGo: -6%; MARV entry inh: -1%; RE007 growth inh: 28µM*

Results for Cc1ccc(-n2ncc3c(SCC(=O)NNC(=O)C(C)C)ncnc32)cc1 ?
Lassa entry inh: 2%; 2A StopGo: 5%; SARS PLpro yeast: 2%; MARV entry inh: inconclusive; NS1 inh: 7%; RE007 growth inh: 12%

How did O=[N+]([O-])c1cccc(S(=O)(=O)NC2CC3CCC2C3)c1 (stereo unspecified) do in these assays?
2A StopGo: 27%; SARS PLpro yeast: -1%; NS1 inh: -23%; RE007 growth inh: -13%

Results for O=[N+]([O-])c1ccc(S(=O)(=O)Nc2ccccn2)cc1 ?
Lassa entry inh: -4%; 2A StopGo: 0%; SARS PLpro yeast: -2%; MARV entry inh: -5%; NS1 inh: 1%; RE007 growth inh: 11%

How did CCn1c(O)c(N=Nc2ccc3ccccc3n2)c2ccccc21 do in these assays?
2A StopGo: 32%[activator]; SARS PLpro yeast: 0%; NS1 inh: -5%; RE007 growth inh: 38%

What do the screens show for `COCCNC(=O)c1cc2ncc(Br)cn2n1`?
Lassa entry inh: -2%; 2A StopGo: 4%; Cruzain noTriton: 1%; SARS PLpro yeast: -4%; Cruzain Triton: -0.4%; MARV entry inh: 4%; NS1 inh: -4%; RE007 growth inh: 1%

How did Cc1nn(-c2ccccc2)c(Cl)c1/C=N/NC(=O)c1ccccc1NS(=O)(=O)c1cccs1 do in these assays?
Lassa entry inh: 10%; 2A StopGo: -19%; Cruzain noTriton: inconclusive; SARS PLpro yeast: 14%; Cruzain Triton: -25%; MARV entry inh: 0%; NS1 inh: 2%; RE007 growth inh: -4%

What do the screens show for `Cc1c(-c2cccc(NC(=O)c3cccs3)c2)nc2ncccn12`?
Lassa entry inh: -5%; 2A StopGo: -10%; Cruzain noTriton: 19%; SARS PLpro yeast: 6%; Cruzain Triton: -0.4%; MARV entry inh: -3%; NS1 inh: -4%; RE007 growth inh: 2%

Results for CCOc1ccccc1N/C(=N/c1nc(C)cc(C)n1)NC(=O)Nc1ccc(Cl)c(Cl)c1 ?
Lassa entry inh: 8%; Cruzain noTriton: 4µM*; SARS PLpro yeast: 6%; Cruzain Triton: 1.1%; MARV entry inh: 35%; NS1 inh: 0%

Results for CN(C)NC(=O)c1ccc([N+](=O)[O-])s1 ?
2A StopGo: -14%; SARS PLpro yeast: -1%; NS1 inh: 1%; RE007 growth inh: -6%

How did CCOC(=O)CSc1nnc(CSc2nc(N)c3c(C)c(C)sc3n2)n1-c1ccccc1 do in these assays?
Lassa entry inh: 9%; 2A StopGo: -16%; Cruzain noTriton: 113%; SARS PLpro yeast: 13%; Cruzain Triton: -4.9%; MARV entry inh: 4%&-3%; NS1 inh: -8%; RE007 growth inh: -2%

What do the screens show for `COc1ccc(NC(=O)CSc2nnc(-c3ccco3)n2N)cc1Cl`?
2A StopGo: -10%; SARS PLpro yeast: 12%; NS1 inh: -3%; RE007 growth inh: -3%

What do the screens show for `CC1CCC2C(=O)N(c3cccc(C(=O)Nc4ccccc4Cl)c3)C(=O)C2C1` (stereo unspecified)?
Lassa entry inh: 13%; 2A StopGo: 0%; SARS PLpro yeast: 12%; MARV entry inh: 14%; NS1 inh: -4%; RE007 growth inh: 21%

How did Cc1cccc(N2CN(S(=O)(=O)c3cccc([N+](=O)[O-])c3)c3nc4ccccc4nc32)c1 do in these assays?
Lassa entry inh: 4%; 2A StopGo: -11%; SARS PLpro yeast: 9%; MARV entry inh: 4%; RE007 growth inh: -10%

No enrichment for hits. Share with any hit: about 4.7%.
